# GLA inh pH 4.5 – inhibitors of human alpha-galactosidase A at pH 4.5; activity change, negative = inhibition, % at 105 µM; 230,000 tested, under 10 active; AID 1467; purified enzyme, 4-MU-alpha-Gal fluorescence, pH 4.5; inconclusive = small, poorly fitted or top-dose-only inhibition, or a rising curve; inactive = flat fitted curve, though single readings scatter; no compound was filed as active;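 note: 0% = full activity with enzyme and -100% = basal without enzyme; dose as in the result columns while the protocol names 77 µM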
# Target sequence (P06280 whole entry, looked up): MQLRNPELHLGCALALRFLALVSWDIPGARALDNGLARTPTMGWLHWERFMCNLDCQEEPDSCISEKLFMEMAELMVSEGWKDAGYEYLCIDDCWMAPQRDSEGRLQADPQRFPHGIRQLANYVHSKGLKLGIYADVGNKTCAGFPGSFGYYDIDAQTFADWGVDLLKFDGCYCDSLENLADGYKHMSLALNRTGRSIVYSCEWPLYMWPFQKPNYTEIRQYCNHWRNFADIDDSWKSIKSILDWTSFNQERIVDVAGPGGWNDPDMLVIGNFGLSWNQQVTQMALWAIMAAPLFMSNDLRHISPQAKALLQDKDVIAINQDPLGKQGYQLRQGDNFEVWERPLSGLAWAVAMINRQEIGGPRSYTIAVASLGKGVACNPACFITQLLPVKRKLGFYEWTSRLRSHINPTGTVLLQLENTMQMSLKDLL
# Rango-impB inh – Rango-importin beta binding inhibition; Rango CFP/YFP FRET sensor + importin beta, 45 min; Potency, µM (top dose mostly 92.2 µM), for the others: top-dose inhibition of complex formation; Q14974; 0.031% of 340,000 active; AID 540263; active = rising FRET ratio curve, often small or poorly fitted; inconclusive = mostly compound fluorescence or quenching in the first reads; inactive = flat curves in all reads;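 note: potency is the fitted concentration of half-maximal effect; 0% = DMSO wells and 100% = buffer wells lacking importin beta; nearly all actives have a fitted effect of over 15% in size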
#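 FRET biosensor (snurportin 1 IBB flanked by EYFP and cerulean), 50 nM, with compound 5 min, then 0.125 microM importin beta in PBS, 1 mM DTT, 0.02% Tween-20, 0.1% BSA. CFP/YFP ratio read after 45 min at room temperature; pre-read flags interference.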
# miR-21 FLuc – raises the signal of a miR-21 reporter; HeLa miR-21 FLuc reporter, luciferase, 48 h; Potency, µM (doses to about 38.3 µM), for the others: at the top dose reporter change, positive = more light; 340,000 tested, under 10 active; active = well fitted rising curve with a large enough effect; inconclusive = small, poorly fitted or top-dose-only effect; inactive = no such curve, though single readings can be large or run the other way;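 note: % of control where 0% means no effect; miR-21 action dims this reporter so a rising signal means less miR-21 action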
#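 HeLa cells endogenously expressing miR-21, stably carrying CMV-driven firefly luciferase with a downstream miR-21 binding site, 2000 cells/well. Titrations up to approximately 40 uM, 48 hours; luciferase luminescence read.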
# Rango dissoc inh – inhibitors of RanGTP-induced Rango-importin beta complex dissociation | Biochemical FRET Rango-importin beta, RanGTP-induced dissociation | Potency, µM (top dose mostly 46.1 µM), for inactives: at the highest dose activity change, negative = inhibition | 0.071% of 340,000 active | O95149+P62826; active means falling FRET ratio curve, often poorly fitted, with flat reads before Ran was added; inconclusive means other falling curves, or compound fluorescence or quenching; inactive means flat or rising ratio curve;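 note: potency is the fitted concentration of half-maximal effect; % of control where 0% means no effect; nearly all actives have a fitted effect of over 45% in size; -100% = wells without RanGTP and RCC1; the record marks most hits as doubtful in a second field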
#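 Compounds sat 5 min at room temperature with 0.1 uM Rango biosensor plus 0.25 uM importin beta, then FRET pre-read. RanGTP-RCC1 (0.6 uM Ran, 2mM GTP, 0.2 uM RCC1) added for 45 min, and the CFP/YFP post-read measured blocked complex dissociation.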
# An asterisk follows results filed as active; ? = inconclusive; . = no result given; & = joins results of further samples.
Compound	GLA inh pH 4.5	Rango-impB inh	miR-21 FLuc	Rango dissoc inh
COc1ccc(NC(=O)Cn2ncc(Cl)c(Cl)c2=O)cc1S(=O)(=O)N1CCOCC1	-4	-2.7%	?	-5%
COc1cccc(CN(CC(=O)NC2CCCC2)C(=O)Cn2nnc(-c3cccs3)n2)c1	1	1.7%	-12%	-1%
COc1cccc(C(C(=O)NC2CCCC2)N(C(=O)c2ccco2)c2ccc(-n3cnnn3)c(C)c2)c1OC (stereo unspecified)	9	0.1%	0%	-11%
O=C(N/N=C/c1cccc(OCC(=O)N2CCCC2)c1)C(=O)Nc1ccccc1F	-2	0.0%	0%	1%
Cc1ccc(C(NC(=O)/C=C\c2ccc3c(c2)OCO3)C(=O)Nc2ccc3c(c2)OCO3)cc1 (stereo unspecified)	1	-1.5%	-3%	16%
Cc1ccc2c(c1)c(C)c(C)n2CC(O)CN1CCCCC1C (stereo unspecified)	4	-0.1%	-9%	-16%
CCc1nn(CC(=O)NCCCN(CC)CC)c(=O)c2cc3sc(C)cc3n12	2	-0.7%	-2%&-1%	-9%
CCN(C(=O)CN1CCN(c2cccc(C(F)(F)F)c2)CC1)c1c(N)n(Cc2ccccc2)c(=O)[nH]c1=O	10	-2.4%	4%	-8%
COC(=O)CCCNc1ncccc1[N+](=O)[O-]	-2	-0.4%	-2%	14%
COc1ccccc1Nc1ncnc2ccccc12	1	-2.5%	-24%	0%
CCn1c(SCC(=O)Nc2ncc(C(F)(F)F)cc2Cl)nnc1-c1ccccc1	8	1.7%	0%	-8%
O=C(c1cccc(S(=O)(=O)N2CCOCC2)c1)N(CCO)Cc1ccccc1	-5	-6.9%	0%	-29%
CC(=NCc1ccco1)c1c(C(F)(F)F)[nH]n(-c2nc3ccccc3s2)c1=O	-3	?	-47%	22%
Cn1c(SC2C(=O)CC(C)(C)CC2=O)nnc1-c1ccco1	-6	-0.1%	-2%	3%
CCOc1cc(NC(=O)c2cnccn2)c(OCC)cc1NC(=O)c1ccc(OC)cc1	-10	.	-4%	.
Cc1cc(OCC(=O)NCCCn2ccnc2)c2c(C)cc(=O)oc2c1	.	0.1%	0%	-7%
CC1=C(C(=O)NCc2ccccc2)C(c2ccccc2OCC(N)=O)NC(=O)N1 (stereo unspecified)	1	-0.9%	-1%	0%
COc1c(O)cc(O)c2c(=O)cc(-c3ccccc3)oc12	.	-0.1%	.	0%
Cc1oc2cc(O)ccc2c(=O)c1Oc1ccc2ccccc2c1	13	-0.4%	-6%	-4%
CCOC(=O)c1cnn(-c2nc(-c3cccc(F)c3)cs2)c1C(F)(F)F	-7	-0.3%	-11%	-11%
Cc1ccc(OCC(O)Cn2c(N3CCCCC3)nc3c2c(=O)[nH]c(=O)n3C)cc1C (stereo unspecified)	.	-2.2%	-6%	15%
CCn1c(=O)c(-c2ccccc2)c(O)c2ccccc21	8	0.7%	-4%	1%
COc1cc(NC(=O)c2cccs2)c(OC)cc1NC(=O)c1cccs1	.	?	.	18µM*
O=C(CCNC(=O)c1ccccc1Cl)OCC(=O)c1ccccc1	?	0.4%	-1%	16%
O=C(NC1CCCCC1)N1CCN(Cc2nc3ccccc3c(=O)[nH]2)CC1	.	?	.	6%
COc1ccc(CCC(=O)Nc2cc(S(=O)(=O)N3CCOCC3)ccc2OC(C)C)cc1	.	?	.	-7%
CCOc1ccc(N2C(=O)CC(SCCN)C2=O)cc1 (stereo unspecified)	3	4.7%	-24%	1%
CCCc1nc2sc3c(c2c(=O)n1NC(=O)CCCl)CCCC3	10	-0.3%	11%	-5%
COc1ccc2c(c1)cc(C(=O)N[C@@H](CCSC)C(=O)N1CCC(C(=O)O)CC1)n2C	.	-2.8%	-5%	?
O=C(NC1CCCC1)C(c1ccccc1)N(Cc1ccco1)C(=O)Cc1cccs1 (stereo unspecified)	4	2.3%	10%	-3%
N#C/C(=C\c1c(N2CCCCCC2)nc2ccccn2c1=O)C(=O)NCc1ccco1	-22	?	1%	-5%
COc1cc2c(cc1OC)CN(C(=O)c1ccc(N3CCCC3)c([N+](=O)[O-])c1)CC2	.	-1.9%	.	6%

# Rango dissoc inh: what is marked active above
Compound	GLA inh pH 4.5	Rango-impB inh	miR-21 FLuc	Rango dissoc inh
COc1cc(NC(=O)c2cccs2)c(OC)cc1NC(=O)c1cccs1	.	?	.	18µM*

# The results go on.
Compound	GLA inh pH 4.5	Rango-impB inh	miR-21 FLuc	Rango dissoc inh
COc1cc(NS(=O)(=O)c2ccc(N/C=C(\C=O)c3nc4cc(Cl)ccc4o3)cc2)nc(OC)n1	2	?	-5%	?
CC1(C)CC(=O)C=C(c2ccc3ccccc3c2)C1	.	-5.7%	.	3%
CCC(C(=O)OCC(=O)Nc1ccc(C)c(S(=O)(=O)N2CCOCC2)c1)c1ccccc1 (stereo unspecified)	.	3.1%	.	0%
Cc1ccc(S(=O)(=O)Nc2cc3c(C(=O)O)c(C)oc3c3ccccc23)c(C)c1	.	-0.1%	9%	-1%
CN(C)S(=O)(=O)N1CCC(Oc2ccc(C(=O)NC3CCOC(C)(C)C3)cc2)CC1 (stereo unspecified)	.	-4.6%	2%	-7%
COCc1nc2ccccc2n1CCCOc1ccccc1	-1	3.4%	-15%	4%
COCCNC(=S)N/N=C(\C)c1ccc(Cl)c(Cl)c1Cl	2	5.3%	-15%	22%
COc1ccc(C(=O)Nc2cc(C)c(NC(=O)c3ccccc3OC)cn2)cc1	.	-1.2%	-28%	3%

# Structures shown so far that contain an aryl thioether with sulfur outside any ring (2):
Compound	GLA inh pH 4.5	Rango-impB inh	miR-21 FLuc	Rango dissoc inh
CCn1c(SCC(=O)Nc2ncc(C(F)(F)F)cc2Cl)nnc1-c1ccccc1	8	1.7%	0%	-8%
Cn1c(SC2C(=O)CC(C)(C)CC2=O)nnc1-c1ccco1	-6	-0.1%	-2%	3%

# Other compounds
Compound	GLA inh pH 4.5	Rango-impB inh	miR-21 FLuc	Rango dissoc inh
C1=CCC(/C=N/n2cnnc2)CC1 (stereo unspecified)	-4	-1.3%	-3%	4%
COCC(=O)Nc1nnc(COc2ccc(Cl)cc2)s1	0	-0.3%	-26%	-3%
C=CCn1c(SCC(=O)Nc2ccc(N(C)C)cc2)nnc1-c1cccc(C)c1	-4	0.4%	-12%	2%
CCN1CCCc2cc(CN(CCN3CCOCC3)C(=S)Nc3ccc(C)cc3)ccc21	3	0.0%	-1%	19%
Cc1ccc(NC(=O)Nc2nnc(Cc3ccc([N+](=O)[O-])cc3)s2)cc1C	-8	-2.0%	-15%	5%
CCn1c(SCC(=O)Nc2ccc(C(=O)OC)cc2)nc2cccnc21	5	0.4%	-9%	7%
CC(=O)N/C(=C\c1ccccc1)C(=O)OCc1ccc(F)cc1	.	-2.9%	-4%	1%
CCOC(=O)N1CCN(C(=O)c2ccc(Cl)c(NC(=O)c3cccs3)c2)CC1	.	-0.9%	.	-3%

# The last two entries of the part before lead into the next.
Compound	GLA inh pH 4.5	Rango-impB inh	miR-21 FLuc	Rango dissoc inh
CC(=O)N/C(=C\c1ccccc1)C(=O)OCc1ccc(F)cc1	.	-2.9%	-4%	1%
CCOC(=O)N1CCN(C(=O)c2ccc(Cl)c(NC(=O)c3cccs3)c2)CC1	.	-0.9%	.	-3%
CCOc1ccc(-c2nnn(CC(=O)Nc3cc(OC)cc(OC)c3)n2)cc1OCC	-3	-4.9%	-18%	0%
CCCC(C(=O)NCc1ccco1)N(C(=O)CNS(=O)(=O)c1ccccc1)c1ccc(OC)cc1 (stereo unspecified)	3	-1.5%	3%	9%
CN(Cc1ccco1)C(=O)C1CCCN(c2ncnc3c2nc2n3CCCCC2)C1 (stereo unspecified)	.	0.4%	-1%	-6%
Cc1ccc(N(CC(=O)NCC2CCCO2)C(=O)CCC(=O)Nc2nccs2)cc1C (stereo unspecified)	.	1.2%	1%	-10%
COc1ccc2c(c1OC)C(=O)N(c1nc(SC)n[nH]1)C2=O	.	-0.4%	3%	-9%
Cc1nc2ccccc2c(=O)n1NC(=O)Cc1ccc(Br)cc1	-4	-2.2%	-2%	-15%
CC(C)[C@H](NC(=O)c1ccccc1)C(=O)OCC(=O)c1ccccc1F	6	0.7%	-8%	33%
COc1cc(C(C)=O)ccc1OCC(=O)c1cc(C)n(C2CC2)c1C	2	0.4%	-38%	1%
O=C(O/N=C1\C(=O)N(c2ccccc2)c2ccccc21)C1CC1	-1	1.5%	0%	0%
c1ccc(-n2c(-c3ccncc3)nnc2-c2ccco2)cc1	3	4.9%	-1%	-5%
CNC(=O)c1ccccc1-c1ccccc1	-1	5.9%	-2%	8%
COc1ccc(/C(O)=C2/C(=O)C(=O)N(CCN3CCOCC3)C2c2cccnc2)cc1OC (stereo unspecified)	-17	-8.0%	-6%	6%
c1ccc(Oc2cccc(OCCCCSc3ncccn3)c2)cc1	-6	-1.6%	-7%	0%
COc1ccccc1C(CCN(Cc1ccccc1)C(C)=O)c1ccco1 (stereo unspecified)	-6	-2.6%	20%	23%
COC(=O)c1ccc(-c2cc3onc(-c4ccccc4)c3c(=O)n2C)cc1	.	3.7%	.	3%
Cc1ccccc1N(CC(=O)NCC1CCCO1)C(=O)CNS(=O)(=O)c1ccc(F)cc1 (stereo unspecified)	.	0.9%	0%	3%
COC(=O)c1ccccc1S(=O)(=O)Oc1ccc(-c2ccc(C(=O)O)cc2)cc1	.	-4.1%	3%	2%
CCCCOC(=O)C1=C(C)Nc2ncnn2C1c1cccc(OC)c1 (stereo unspecified)	4	-3.2%	-5%	-7%
O=C(Nc1ccc(-n2cnnn2)cc1)C1CCC1	4	-3.1%	5%	-3%
C/C=C(\C)CN1CCc2cc(OC)c(OC)cc2C1	0	-3.7%	-1%	2%
CCOc1ccc2c(c1)-c1c(ssc1=S)C(C)(C)N2C	2	0.2%	-8%	9%
N#CCCN(CCC#N)c1nnc(-c2ccccc2)s1	-7	-2.6%	-2%	-2%
O=C(C[C@H]1C/C=C\CC[C@H](Cc2ccc(F)cc2)C(=O)O[C@H](c2ccccc2)CNC1=O)N[C@H](CO)Cc1ccccc1	.	-2.4%	.	-19%
COc1ccc(NC(=O)/C(C#N)=C\c2ccc(-c3cc(C(=O)O)ccc3C)o2)cc1	.	?	-6%	?

# Copied from the list.
# Reading of COC(=O)c1ccccc1S(=O)(=O)Oc1ccc(-c2ccc(C(=O)O)cc2)cc1 under Rango dissoc inh: 2%
# Reading of O=C(C[C@H]1C/C=C\CC[C@H](Cc2ccc(F)cc2)C(=O)O[C@H](c2ccccc2)CNC1=O)N[C@H](CO)Cc1ccccc1 under Rango dissoc inh: -19%
# Reading of C/C=C(\C)CN1CCc2cc(OC)c(OC)cc2C1 under GLA inh pH 4.5: 0

# The list goes on.
Compound	GLA inh pH 4.5	Rango-impB inh	miR-21 FLuc	Rango dissoc inh
CCOc1cc(CNc2ncc(-c3ccc(OC)cc3)n2C)ccc1O	-2	0.3%	0%	5%
COc1ccc(C(=O)OCC(=O)NCc2ccc3c(c2)OCO3)cc1[N+](=O)[O-]	-1	1.5%	-5%	9%
Cc1ccc(SCCC(=O)N(C)C)cc1	4	2.6%	-34%	-7%
O=C(c1cc2cc(F)ccc2[nH]1)N1CCN(c2ccc(F)cc2)CC1	.	-7.0%	4%	0%
O=C1N=C(O)CN1/N=C/c1ccc(-c2ccc([N+](=O)[O-])cc2)o1	-6	?	.	?
Cc1cc(NC(c2ccc(Cl)cc2)c2ccc3cccnc3c2O)no1 (stereo unspecified)	-4	-1.5%	18%	1%
O=C(CSc1nnc(-c2c[nH]c3ccccc23)o1)N(Cc1ccccc1)c1ccc(F)cc1	6	0.1%	13%	29%
C=CCN(C(=O)c1csnn1)C(C(=O)NC1CCCC1)c1ccccc1 (stereo unspecified)	.	0.0%	-6%	0%
COC(=O)C1=C(C)N(C)C(C)=C(C(=O)OC)C1c1ccc(C(=O)OC)cc1	2	-0.3%	-9%	0%
Cc1ccc(NC(=O)C2CCCN(C3=NS(=O)(=O)c4ccccc43)C2)c(O)c1 (stereo unspecified)	.	-0.3%	.	0%

# Source: PubChem (National Center for Advancing Translational Sciences (NCATS))

# Some of the compounds tested, so the mix of outcomes need not match the whole.
